Compound activity from PubChem BioAssay.
Arbovirus inh – antivirals against arbovirus infection, primary screen, cell-based, full library, 10K replicate subset; arbovirus infection cell-based antiviral screen; inhibition, % at 10 µM; 200,000 compounds, 0.37% hits; AID 1251, 2008;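 active = inhibition from about 30%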;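 also: bluetongue infection of BSR cells; cell survival read as ATP light after 72 h; 0% = infected wells without compound and 100% = uninfected wells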
YopH PTP inh – YopH tyrosine phosphatase inhibitors, primary screen, biochemical, fluorescence Ex485/Em525; inhibition, %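 (about 10 µM by stock and volumes)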; AID 898, 2007; 140,000 compounds, 0.16% hits; YopH tyrosine phosphatase [Yersinia enterocolitica];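 active = inhibition of 50% or more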;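 also: controls were vehicle for no effect and minimum signal wells for full effect; inactives centre near -20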
RecA intein inh – Mtb RecA intein splicing inhibitors, primary screen, biochemical, fluorescence, HTS; Protein RecA (Mycobacterium tuberculosis (strain ATCC 25618 / H37Rv)), P9WHJ3; cell-free RecA intein splicing; inhibition, %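 (about 9 µM by stock and volumes)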; 290,000 compounds, 0.75% hits; in the data active = inhibition above about 30%; inconclusive = no clear call, values can overlap the other calls;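 also: 0% = vehicle wells and 100% = reference inhibitor control wells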
Target sequence (P9WHJ3 whole entry, looked up): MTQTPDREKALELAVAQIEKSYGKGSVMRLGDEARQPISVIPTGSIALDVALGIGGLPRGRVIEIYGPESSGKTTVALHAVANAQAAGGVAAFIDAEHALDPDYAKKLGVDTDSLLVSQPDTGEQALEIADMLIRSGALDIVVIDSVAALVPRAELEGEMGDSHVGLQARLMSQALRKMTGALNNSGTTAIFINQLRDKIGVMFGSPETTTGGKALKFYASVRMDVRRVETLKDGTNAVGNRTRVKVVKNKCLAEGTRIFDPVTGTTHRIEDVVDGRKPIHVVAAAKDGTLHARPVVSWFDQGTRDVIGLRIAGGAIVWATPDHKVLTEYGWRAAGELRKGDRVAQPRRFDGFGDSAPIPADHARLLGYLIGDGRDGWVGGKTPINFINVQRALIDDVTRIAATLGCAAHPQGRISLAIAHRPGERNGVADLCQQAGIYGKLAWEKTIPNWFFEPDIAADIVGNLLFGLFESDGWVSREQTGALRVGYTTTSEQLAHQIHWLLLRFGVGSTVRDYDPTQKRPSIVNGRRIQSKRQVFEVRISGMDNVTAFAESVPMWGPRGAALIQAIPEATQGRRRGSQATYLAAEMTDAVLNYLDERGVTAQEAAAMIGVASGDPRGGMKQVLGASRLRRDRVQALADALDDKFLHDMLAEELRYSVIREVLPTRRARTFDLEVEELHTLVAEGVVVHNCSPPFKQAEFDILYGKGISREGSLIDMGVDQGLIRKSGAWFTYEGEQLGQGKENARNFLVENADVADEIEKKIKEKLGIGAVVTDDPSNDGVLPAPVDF
Mtb betalactam – beta-lactam sensitization of Mtb H37Rv, H37Rv | M. tuberculosis H37Rv growth with meropenem, percent inhibition; hits of this screen are not shown here | inhibition, % at 25 µM | AID 434955, 2010 | 330,000 compounds, 0.27% hits;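 active = about 74% or more and at least 40 points above the plate without the antibiotic, then above 30% in a dose series; inconclusive = first-round hits that could not be retested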;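 also: growth measured after seven days incubation then overnight dye step; 0% = bacteria only wells and 100% = bacteria with antibiotic; twin plates without the antibiotic show which effects depend on it; some results filed as inactive read as strong as hits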
Mtb H37Rv – M. tuberculosis H37Rv growth inhibitors, H37Rv strain (AID 1626). M. tuberculosis H37Rv growth inhibition; higher % means a stronger effect. inhibition, % at 10 µM, or IC50 in µM where a hit was titrated. 220,000 compounds, 0.95% hits;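 active = confirmed in a dose series; inconclusive = inhibition above 80% but not taken into the dose series; inactive = below 80% or under 30% at every dose of the series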;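 also: bacteria incubated seven days before Alamar blue readout; 0% = bacteria only wells and 100% = bacteria with antibiotic wells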
Arbovirus inh repeat – further read-out of Arbovirus inh, marked with its call; inhibition, %; measured here: 10K subset replicate screen; many hits read low in the repeat;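 first of two repeat runs on a subset; 0% = infected and 100% = uninfected wells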
The depositor's hits bear a star; i = inactive; ? = inconclusive; . = no result given.

SMILES	Arbovirus inh	YopH PTP inh	RecA intein inh	Mtb betalactam	Mtb H37Rv	others
CC(C)C(=O)Nc1sc2c(c1-c1nc3ccccc3[nH]1)CCCC2	-11	19	3.2	-7	-2%
CCCOc1ccc(N/C=C/C(=O)c2cc(OC)c(OC)c(OC)c2)cc1	.	.	-0.2	96	.
CCNC(=S)NNC(=O)c1ccccc1OC(F)F	-1	-34	-1.6	0	-4%
C=CCNc1ncnc2sc(SC)nc12	.	.	3.8	1	0%
O=C(OCC(=O)N1CCN(c2ccccc2)CC1)c1cccc([N+](=O)[O-])c1	.	.	-8.2	85	.
CCNc1sc(S(C)(=O)=O)nc1S(=O)(=O)c1ccc(Cl)cc1	8	.	-2.9	-3	5%
C=CCSc1nc(C)cc(C(=O)OCC)c1C#N	.	.	5.0	74	-3%
COc1cc(/C=N/Nc2nc(Nc3ccccc3)nc(N3CCCCC3)n2)ccc1OCC(=O)O	0	.	-6.4	77	?
CCOCCCNCC(=O)NCC1CCCCC1	-5	.	.	5	-9%
Cc1ccc(-c2cc(C(=O)Nc3nn[nH]n3)c3ccccc3n2)cc1	9	-40	1.0	75	7%
O=c1[nH][nH]c(C(F)(F)F)c1/C=N/N1CCOCC1	0	.	-4.5	-2	-3%
CC(C)(C)Nc1nc(Cl)nc(NCc2ccccc2)n1	.	.	1.3	-3	9%
COC(=O)[C@]1(CC(C)C)N[C@H](c2ccc(-c3ccc(Cl)c(Cl)c3)cc2)[C@@H]2C(=O)N(C)C(=O)[C@@H]21	.	.	0.8	-20	.
CCOc1ccccc1C(=O)N1CCN=C1SCc1cccnc1	-1	-26	2.8	-3	6%
CC(C)Cc1csc(NC(=O)C(C)C)c1C(=O)O	.	.	2.2	8	4%
COc1ccc(OC)c(NC(=O)CCOc2cccc(C)c2)c1	.	.	0.0	6	.
CC1=C(C(=O)Nc2ccccc2)C(c2cccnc2)n2ncnc2N1 (centres undefined)	6	.	-1.1	-5	6%
COc1ccc(N(CC(=O)NC2CCCC2)S(=O)(=O)c2ccc(NC(C)=O)cc2)cc1	.	.	1.2	0	.
Cn1c2ccccc2n2c(=O)cc(-c3ccccc3)c(C#N)c12	.	.	-12	0	-12%
CCCC1CC(C)(c2csc(Nc3ccc(OCC)cc3)n2)OC1=O (centres undefined)	-22	-14	1.0	-4	5%
Cc1cc(C(=O)Cn2nnc3ccccc3c2=O)c(C)n1Cc1cccs1	-14	-19	4.7	-2	-4%
COc1ccc(CN2[C@@H](CC(C)=O)c3cc(C(F)(F)F)ccc3S2(=O)=O)cc1	.	.	1.0	-16	1%
CC(=O)c1c(C)[nH]c(C(=O)NCc2ccccc2F)c1C	.	.	0.7	9	.
COc1cc(NC(=O)COC(=O)c2cc(S(=O)(=O)N3CCCCC3)ccc2Cl)c(C)cc1[N+](=O)[O-]	6	-34	-0.1	-4	-4%
Cc1cccc(-n2ccnc2SCC(=O)Nc2nccs2)c1C	3	-16	0.9	41	4%
CN(C)c1ccc(NC(=O)c2ccc3c(c2)nnn3C)cc1	-3	.	.	-5	4%
CCN1CCN(C(C(=O)NC2CCCC2)c2cc3c(cc2[N+](=O)[O-])OCO3)CC1 (centres undefined)	-6	.	0.6	4	0%
Cc1ccc2nc(C)cc(C(=O)OCC(=O)Nc3c(C)n(C)n(-c4ccccc4)c3=O)c2c1	-4	.	-0.7	1	-5%
CSc1nc2ccc3nc(NC(=O)c4ccc(C)cc4)sc3c2s1	3	-37	0.6	3	.
O=C(CN(Cc1ccc(F)cc1)C(=O)CCC(=O)Nc1ccccn1)NCCc1ccccc1	.	.	-1.6	-1	.
O=C(NCc1ccc2c(c1)OCO2)c1ccc(COc2cc(Cl)ccc2Cl)o1	-14	12	3.4	-2	-4%
O=C(NCC1COc2ccccc2O1)c1ccccc1 (centres undefined)	-5	36	6.8	-4	4%
CCc1cc(=O)oc2cc(OCC(=O)N3CCCc4ccccc43)ccc12	-3	-22	-0.2	1	20%
Cc1ccc(S(=O)(=O)N(C)C)cc1NC(=O)CN1C(=O)NC2(CCCCCC2)C1=O	.	.	1.9	?	.
COCCCNC(=S)Nc1ccc2nc(N3CCOCC3)cc(C)c2c1	.	.	-0.7	-4	.
CC(C)[C@H](NC(N)=O)C(=O)Nc1ccc(Oc2ccccc2)cc1	-8	.	0.6	-3	5%
c1ccc(CCOn2ccnc2)cc1	.	.	-1.2	-2	.
CS(=O)(=O)c1sc(C#N)c2c1C(=O)CC(c1ccccc1)C2 (centres undefined)	.	.	23	100	?
O=S1(=O)CCOCCN1Cc1ccccc1	.	.	0.2	-8	.
COc1cc(OC)cc(-c2nc3ccccc3c(=O)n2OC(=O)c2ccccc2C)c1	7	-35	0.6	15	-15%

Compounds from the list above containing an aryl methoxy group (seven):
SMILES	Arbovirus inh	YopH PTP inh	RecA intein inh	Mtb betalactam	Mtb H37Rv	others
CCCOc1ccc(N/C=C/C(=O)c2cc(OC)c(OC)c(OC)c2)cc1	.	.	-0.2	96	.
COc1cc(/C=N/Nc2nc(Nc3ccccc3)nc(N3CCCCC3)n2)ccc1OCC(=O)O	0	.	-6.4	77	?
COc1ccc(OC)c(NC(=O)CCOc2cccc(C)c2)c1	.	.	0.0	6	.
COc1ccc(N(CC(=O)NC2CCCC2)S(=O)(=O)c2ccc(NC(C)=O)cc2)cc1	.	.	1.2	0	.
COc1ccc(CN2[C@@H](CC(C)=O)c3cc(C(F)(F)F)ccc3S2(=O)=O)cc1	.	.	1.0	-16	1%
COc1cc(NC(=O)COC(=O)c2cc(S(=O)(=O)N3CCCCC3)ccc2Cl)c(C)cc1[N+](=O)[O-]	6	-34	-0.1	-4	-4%
COc1cc(OC)cc(-c2nc3ccccc3c(=O)n2OC(=O)c2ccccc2C)c1	7	-35	0.6	15	-15%

Further entries
SMILES	Arbovirus inh	YopH PTP inh	RecA intein inh	Mtb betalactam	Mtb H37Rv	others
CC(=O)Oc1ccc2c(c1)Oc1cc(OC(C)=O)ccc1C21OC(=O)c2ccccc21	-8	i	.	5	0%
CCCCCC(=O)NC(CC(=O)OC)c1ccc2c(c1)OCO2 (centres undefined)	-1	.	0.5	0	8%
CCOC(=O)c1sc(NC(=O)c2cc3n(n2)C(C(F)(F)F)CC(c2ccccc2)N3)c(C(=O)OCC)c1C (centres undefined)	17	-32	1.2	-2	55%
CCn1c(=O)n(CC)c2cc(N3CCCC3)c(NC(=O)c3ccccc3OC)cc21	.	.	-0.8	93	.
Cc1ccc(C)c(SCC(=O)OCC(=O)c2ccco2)c1	2	-37	4.7	9	-5%	Arbovirus inh repeat=1
O=C(NCCC1=CCCCC1)C(=O)NCC(c1ccco1)N1CCN(c2ccccc2)CC1 (centres undefined)	-9	-29	-0.4	3	-2%
COc1cc2c(cc1O)C(Cc1ccc(O)cc1)[N+](C)([O-])CC2 (centres undefined)	.	.	-2.9	-12	10%
CC(C)(C)NC(=O)NC(=O)COC(=O)c1cccc(F)c1	1	-20	.	-5	1%
CC1CCCCN1S(=O)(=O)c1ccc(S(=O)(=O)N(Cc2ccccc2)Cc2ccco2)cc1 (centres undefined)	-4	-18	2.8	17	-3%
COc1cccc(CN(C)CC(=O)NCc2ccc(C)cc2)c1	.	.	-1.0	4	.
CCn1c(SCC(=O)NCc2ccc3c(c2)OCO3)nnc1-c1c[nH]c2ccccc12	-19	-31	-0.1	-12	-1%
O=C(Nc1cccc(C(=O)O)c1)/C(=C/c1ccc([N+](=O)[O-])cc1)NC(=O)c1ccccc1	-6	.	3.9	2	-3%
CC(=O)N(\C=C/C=C/C=C1\Sc2ccccc2C1=O)c1ccccc1	5	.	3.3	1	5%
O=C(CSc1nnnn1C1CCCCC1)N1CCN(C(=O)c2ccco2)CC1	16	.	-1.7	5	-1%
COc1cccc(C2NC(=O)N(CCCC(=O)O)C(C)=C2C(=O)OCc2ccccc2)c1 (centres undefined)	.	.	-1.4	-2	-8%
O=C(CSc1nnc(-c2ccco2)n1-c1ccccc1)NCC1CCCO1 (centres undefined)	.	.	-0.6	?	.
CC(CC(=O)Nc1nc2ccccc2[nH]1)c1ccccc1 (centres undefined)	-1	3	0.3	98	?
CCCc1ccc(-c2ccc(/C=C/C(=O)O)cc2)nc1	-8	-27	-3.0	79	10%
COc1ccc(CNc2oc(C)nc2C#N)cc1	3	25	-0.5	-8	4%	Arbovirus inh repeat=-3
CC(=O)N1CCN(c2ccccc2NC(=O)c2ccco2)CC1	.	.	0.2	-1	.
COc1ccc(Cl)cc1N=Cc1c(O)c2ccccc2oc1=O	.	.	-4.7	0	.
CNC(=O)c1c(NC(=O)C2=COCCO2)sc2c1CCC(C)C2 (centres undefined)	.	.	-0.1	?	.
Cn1c(=N)n(CC(O)c2ccco2)c2ccccc21 (centres undefined)	1	-1	1.4	-3	-1%
COc1cccc(NC(=O)Nc2ccc3c(c2)nnn3C)c1	-2	-18	.	-13	-7%
COC(=O)Cn1c(=NC(=O)CSCC(=O)Nc2cc(C)on2)sc2ccccc21	-1	.	2.6	-7	0%	Arbovirus inh repeat=5
O=C(CNC(=S)N(CCCN1CCOCC1)Cc1cccs1)N1CCCCCC1	5	.	-1.0	0	-9%
CCN(CC)S(=O)(=O)c1ccc(C)c(NC(=O)CSc2nc3ccc(C)cc3[nH]2)c1	-7	-9	4.9	1	7%
NC(=O)c1cc2ccccc2o/c1=N\NC(=O)c1ccccc1O	.	.	0.5	4	.
O=C(COC(=O)c1cc(F)cc(F)c1)NCCCc1ccccc1	.	.	-3.7	4	.
N/C(=N\OC(=O)c1ccco1)c1ccccc1	1	-11	1.5	-3	7%
Cc1ccc(/C=C/C(=O)OC(C)C(=O)NC2CCCCC2C)o1 (centres undefined)	.	.	-0.4	-5	.
CN(C)S(=O)(=O)c1cccc(NC(=O)c2ccc3nccnc3c2)c1	.	.	0.3	-3	2%
CC(=O)N1CCc2cc(S(=O)(=O)CCC(=O)N3CCc4ccccc4C3)ccc21	6	-25	-0.8	0	-9%
CCCCNC(=O)CCC(=O)Nc1ccc2nc(N3CCN(C)CC3)cc(C)c2c1	-2	.	0.1	3	1%
O=C(Nc1nnc(Cc2ccc(Cl)cc2)s1)C1CCCO1 (centres undefined)	2	.	1.0	0	44%
c1ccc(CCSc2ncnc3nc[nH]c23)cc1	-31	-16	2.0	4	3%
COc1cc(O)c(C(CCN2CCCC2)c2ccc3c(c2)OCO3)c(OC)c1 (centres undefined)	.	.	-0.1	-3	17%
COCCCN1C(=O)C(O)=C(C(C)=O)C1c1ccccn1 (centres undefined)	8	13	1.3	-9	2%
CC1CCCCC1NC1CCN(C)CC1 (centres undefined)	.	.	-0.5	-7	.
O=C(Nc1ccon1)c1ccc(N2CCCCC2)c([N+](=O)[O-])c1	-8	.	-0.7	-1	3%
O=C(Nc1cccc2ccccc12)N1CCN(c2ccccc2)CC1	3	-10	.	6	12%
O=C(Nc1ccc(Br)cc1)C1CC=CCC1C(=O)OCC1CCCO1 (centres undefined)	13	-29	-1.6	-2	-8%
O=C(Cn1cc(C(F)(F)F)ccc1=O)N1CCN(S(=O)(=O)c2ccccc2)CC1	-1	-36	-1.3	4	-10%
COc1ccc(C(=O)NC2CCCCC2)cc1S(=O)(=O)N1CCCC1	10	-41	1.8	-1	-3%
CCOc1ccc2c(c1)C(c1ccc(C)cc1)=NNC(c1ccc(OC)cc1)=N2	-8	-34	4.6	88	25%
CCN(CC(=O)Nc1ccccc1Br)Cc1nc2ccccc2c(=O)[nH]1	6	4	-0.9	-2	-5%
CCC(Oc1ccccc1)C(=O)Nc1nnc(S(=O)(=O)N2CCCCC2)s1 (centres undefined)	.	.	-0.7	1	.
CCOC(=O)N1CCN(S(=O)(=O)c2ccc(OC)c(Cl)c2Cl)CC1	7	-24	-0.1	-9	0%
CCCOC(=O)C1C2C=CC(C2)C1C(=O)OCC(=O)c1ccccc1 (centres undefined)	8	2	1.4	-3	-18%
CCOC(=O)C1CCCN(S(=O)(=O)c2c(C)[nH]c(C)c2C(=O)N2CCCC2)C1 (centres undefined)	.	.	-0.7	-5	.
Next compounds follow.
SMILES	Arbovirus inh	YopH PTP inh	RecA intein inh	Mtb betalactam	Mtb H37Rv	others
COc1ccc(N(C(=O)c2snc(C(N)=O)c2N)C(C(=O)NC2CCCC2)c2cccs2)c(OC)c1 (centres undefined)	.	.	-0.7	7	.
O=C(CN1C(=O)NC2(CCCCC2)C1=O)N1CCc2ccccc2C1	0	.	-0.7	-1	-3%
COc1ccccc1NC(=O)COc1ccccc1	2	-14	-0.8	8	5%
C=CCNc1nc(-c2ccccc2)nc(-n2ccnc2)n1	-19	3	2.3	?	17%
CCOC(=O)c1ccc(NC(=S)NC2CCCC2)cc1	0	-14	-1.2	3	?
Cc1ccc(C(=O)N2CCC(C)CC2)cc1S(=O)(=O)N1CCCCC1	.	.	-0.1	-14	.

Only part of the results is shown. The share of hits here may be higher or lower than overall.
